Compound activity deposited in PubChem BioAssay by several laboratories.
A1 inh: inhibitors of the anti-apoptotic protein A1, read as caspase activation; MEF A1-2A-BIM cells, Caspase-Glo 3/7 luminescence, 3 h; percent of clofoctol response, vehicle zero; caspase activation, % (concentration not given with the values); 0.066% of 330,000 active; AID 2462;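 active means over half of replicate activation scores above 10%, or exactly half above 10 with the replicate mean above 10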;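 further: wells of about 30 µL received 50 nL stock; many hits fall short of the cut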
T cruzi repl: blocks replication of Trypanosoma cruzi. T. cruzi beta-gal in NIH3T3, luminescence, 90 h. inhibition, % (concentration not given with the values). 1.4% of 300,000 active;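 active means mean inhibition across valid replicates above about 55%, limit read from the data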;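 further: signal also drops with host cell toxicity which is not excluded here; 0% = plate median of DMSO wells and 100% = zero luminescence signal; higher percent means less beta-gal luminescence so fewer parasites; stock transfer was 50 nL into about 50 µL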
rRNA inh HTS: inhibits bacterial ribosomal RNA function over humanized ribosomes. E. coli WT GFP vs humanized-ribosome RFP mutants, fluorescence, 24 h; stronger effect = lower value; DMSO median 0, no signal -100. GFP signal change (wild-type ribosome), % (no concentration beside the values). 1.6% of 350,000 active;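 active means significant combined selectivity score with lowered wild-type GFP, culture density cut under 30%, mutant RFP and density less affected; inactive means any of these conditions unmet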; further: one replicate is shown; some compounds called inactive have numbers as strong as hits
Beta apoptosis: blocks beta cell apoptosis; INS-1E cytokine-induced death, ATP luminescence, 48 h; percent of positive-control rescue, neutral wells zero; protection from apoptosis, % (no concentration beside the values); 0.8% of 300,000 active; AID 435005;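 active means all replicates at 75% or more, or half of them and the mean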;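 further: 0% = cytokine-treated negative control wells and 100% = positive control rescue; higher means more ATP so stronger rescue from cytokine killing; wells of about 40 µL received 100 nL stock; the first replicate is given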
FGF22 binding: shifts melting point of recombinant human FGF22. 1.5% of 340,000 active. Q9HCT0. calls only at 9.99 µM. recombinant FGF22 thermal shift, SYPRO orange fluorescence; percent of sucrose octasulfate shift, DMSO zero;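 active means melting point raised past a set limit in the mean and every replicate; three in four hits are not shown here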
Target sequence (Q9HCT0 whole entry, looked up): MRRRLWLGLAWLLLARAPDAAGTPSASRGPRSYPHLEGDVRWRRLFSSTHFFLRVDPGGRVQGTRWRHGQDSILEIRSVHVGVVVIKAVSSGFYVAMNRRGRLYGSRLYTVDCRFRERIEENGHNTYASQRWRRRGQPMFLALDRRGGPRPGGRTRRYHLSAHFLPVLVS
UCH37 inh: human UCH37 deubiquitinating enzyme inhibition; Q9Y5K5; purified proteasome/UCH37, Ub-AMC cleavage fluorescence; inhibition, % (test concentration not listed); 0.33% of 330,000 active; AID 588478;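 active means mean of two replicates above 20%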;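 further: 0% = compound-free wells with enzyme and 100% = wells lacking proteasome; stock transfer was 100 nL into about 20 µL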
Target sequence (Q9Y5K5 whole entry, looked up): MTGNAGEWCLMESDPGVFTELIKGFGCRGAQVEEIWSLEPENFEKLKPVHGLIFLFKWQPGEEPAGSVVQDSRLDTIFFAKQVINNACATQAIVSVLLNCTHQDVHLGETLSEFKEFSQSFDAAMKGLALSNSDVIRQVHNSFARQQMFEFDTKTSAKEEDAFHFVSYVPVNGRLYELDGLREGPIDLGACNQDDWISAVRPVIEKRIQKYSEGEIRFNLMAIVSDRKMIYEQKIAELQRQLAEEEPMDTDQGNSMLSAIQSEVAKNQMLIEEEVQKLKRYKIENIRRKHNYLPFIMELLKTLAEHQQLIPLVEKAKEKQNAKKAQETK
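Assay system: Proteasome-bound UCH37. Buffer or medium: pH 7.4 Tris-HCl (50 mM) with ovalbumin, ATP-MgCl2, DTT. Incubation: 30 min preincubation with enzyme, 25 min cleavage at room temperature. Measured by: fluorescence, ex 355 nm, em 460 nm. Read-out basis: percent inhibition. Control set: wells without proteasome as full block, compound-free enzyme plus substrate as uninhibited.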
E coli growth: E. coli growth inhibition | Escherichia coli growth, OD600, 23 h; stronger effect = lower value | OD600 absorbance (test concentration not listed) | 0.21% of 330,000 active | AID 1053175;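 active means OD600 absorbance below the run mean of sample wells minus 3.6 SD, in any replicate, cut at about 0.56 in these data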;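 further: stock transfer was 300 nL into about 60 µL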
MLL AF4-AF9 inh: blocks AF4 peptide binding to human AF9; AlphaScreen, biotin-AF4 peptide binding to FLAG-AF9; 0.47% of 350,000 active; inhibition, % at 10 µM; AID 651704; P42568;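 active means every replicate reaching a set inhibition limit, whatever the replicate mean, cut at about 25% in these data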;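 further: 0% = plate neutral control median and 100% = total signal loss; the record names both 10 and 1 µM as test concentration; the first replicate is given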
Target sequence (P42568 whole entry, looked up): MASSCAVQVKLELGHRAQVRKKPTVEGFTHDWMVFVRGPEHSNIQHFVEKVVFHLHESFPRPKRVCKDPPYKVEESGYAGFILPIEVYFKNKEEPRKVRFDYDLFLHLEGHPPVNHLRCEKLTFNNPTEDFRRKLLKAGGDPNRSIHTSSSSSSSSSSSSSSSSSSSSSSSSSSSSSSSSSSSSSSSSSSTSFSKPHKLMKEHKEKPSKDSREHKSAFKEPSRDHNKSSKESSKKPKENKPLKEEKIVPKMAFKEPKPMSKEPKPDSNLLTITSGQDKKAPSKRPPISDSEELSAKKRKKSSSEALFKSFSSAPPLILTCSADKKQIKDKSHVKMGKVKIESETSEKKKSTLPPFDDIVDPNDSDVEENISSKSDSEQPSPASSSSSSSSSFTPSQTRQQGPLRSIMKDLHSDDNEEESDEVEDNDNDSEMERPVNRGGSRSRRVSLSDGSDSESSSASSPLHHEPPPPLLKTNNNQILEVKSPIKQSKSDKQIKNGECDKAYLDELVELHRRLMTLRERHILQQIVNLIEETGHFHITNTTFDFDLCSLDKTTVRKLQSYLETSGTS
rRNA inh HTS OD600: also measured in rRNA inh HTS; calls as there; OD600 change, %; measured here: OD600 growth;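 optical density of the mix in the first replicate; 0 = DMSO median and -100 = no signal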
rRNA inh HTS RFP: recorded beside rRNA inh HTS, whose call it bears; RFP signal change, %; measured here: RFP humanized mutant strains;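 first replicate; 0 = DMSO median and -100 = no signal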
Numbers without * were called inactive; i = inactive; · = no result given; + = active, no number; & = joins results of further samples. Only part of the results is shown (hit frequency here may not be typical).

SMILES	A1 inh	T cruzi repl	rRNA inh HTS	rRNA inh HTS OD600	rRNA inh HTS RFP	Beta apoptosis	FGF22 binding	UCH37 inh	E coli growth	MLL AF4-AF9 inh
CCCN1C[C@H](CSC)C[C@@H]2c3cccc4[nH]cc(c34)C[C@H]21	·	3	·	·	·	·	i	-0.1	·	9.0&13
COc1ccccc1NS(=O)(=O)c1cccc2cccnc12	0.5	-2	-4	-2	-6.1	-7	i	6.4	0.74	6.6
CC(NCC(=O)Nc1ccccc1C(=O)NC1CC1)c1ccc(S(N)(=O)=O)cc1 (centres undefined)	0.9	·	8	17	-0.5	-6	i	2.1	0.62	1.4
COc1nc(-c2ccccc2)c2cc(Br)ccc2n1	1.0	14	-30	-46	-0.5	·	i	-26	0.65	1.6
CCc1ccc(-n2c(CSc3nnnn3-c3ccccc3)nc3ccccc3c2=O)cc1	1.0	9	·	·	·	·	·	3.9	0.76	·
O=c1c2ccccc2ncn1/N=C/c1ccccc1	-11	-1	21	30	4.1	-2	i	·	·	-1.5
COc1ccc(-c2cc3ccccc3oc2=O)cc1NC(=S)NC(=O)c1ccc2c(c1)OCCO2	26*	24	·	·	·	47	·	-35	0.69	·
COC(=O)c1cccc(NC(=O)c2nn(C(C)C)c(=O)c3ccccc23)c1	-0.2	0	·	·	·	1	·	-7.6	0.73	·
O=C(NNC1=NCCC1)c1cccc(S(=O)(=O)N2CCOCC2)c1	0.3	-8	25	27	2.6	-11	i	3.3	0.7	-1.4
CC12CCC(C(=O)NCc3cccnc3)(OC1=O)C2(C)C (centres undefined)	0.1	-19	·	·	·	-4	·	-2.2	0.68	·
Cc1nn(Cc2ccccc2)c(C)c1NC(=O)CSc1nc(C2CC2)nc2c1cnn2-c1ccccc1	0.6	14	·	·	·	2	·	-0.8	0.73	·
CCOC(=O)N(Cc1ccccc1)C(C(=O)O)C(C(=O)O)N(Cc1ccccc1)C(=O)OCC (centres undefined)	0.2	-15	·	·	·	-7	·	·	0.72	·
FC(F)(F)c1cnc(Sc2ncn[nH]2)c(Cl)c1	-0.4	-7	25	24	0.1	·	i	0.0	0.66	-3.3
COc1cccc(C(=O)NC2CCCC2)c1	-0.6	-3	14	9	-0.8	1	i	-0.5	0.71	1.2
C/C(CC(=O)NCCCN1CCOCC1)=N\NC(=O)COc1ccc(C)cc1	0.8	-9	7	5	-3.6	-2	i	·	·	-0.6
COC(=O)c1cccc(S(=O)(=O)N2CCOCC2)c1	0.8	-3	·	·	·	1	·	4.7	0.7	·
CCOC(=O)C1=C(C)NC(C)=C(C(=O)OC)C1c1ccco1 (centres undefined)	0.9	7	-3	7	-0.3	-1	i	-9.9	0.68	1.3
O=c1c2ccccc2nnn1CSc1nnc2ccccn12	0.3	-10	·	·	·	-2	·	-0.7	0.7	·
CC(C)CNS(=O)(=O)c1cc(C(=O)OCC(=O)N(C)C2CCS(=O)(=O)C2)c(Cl)cc1Cl (centres undefined)	0.4	-1	2	1	-0.4	-2	i	0.9	0.7	-30
Cc1ccc(C)c(NC(=O)c2ccccn2)c1	0.4	-7	-20	-10	-14	-1	i	1.3	0.63	6.7
Cc1cc2ncn(CC(O)COc3cccc(C(=O)O)c3)c2cc1C (centres undefined)	0.4	6	·	·	·	-4	·	1.9	0.66	·
Cc1ccccc1-n1nnnc1SCC(=O)N(C)C1CCS(=O)(=O)C1 (centres undefined)	0.2	11	14	2	-14	-5	i	5.4	0.72	-0.6
COc1cc(C2C(C#N)=C(N)Oc3n[nH]c(-c4ccncc4)c32)cc(OC)c1OC (centres undefined)	-0.9	-12	·	·	·	-6	·	7.1	0.75	·
COc1ccc(/C=N/Nc2ccc([N+](=O)[O-])cc2)cc1O	-3.5	-6	-10	-14	-6.0	5	+	·	·	0.4
CC(C)NCCOCCSc1ccc(Cl)cc1	0.0	32	·	·	·	1	·	1.6	0.71	·
(more compounds)
SMILES	A1 inh	T cruzi repl	rRNA inh HTS	rRNA inh HTS OD600	rRNA inh HTS RFP	Beta apoptosis	FGF22 binding	UCH37 inh	E coli growth	MLL AF4-AF9 inh
COc1cc(/C=C/C(=O)NCCc2ccc(S(N)(=O)=O)cc2)ccc1OCC#N	1.3	-9	-26*	-10*	4.0*	0	i	-3.7	0.69	1.4
O=C(Nc1ccccc1Cl)c1ccc(-n2cccn2)c([N+](=O)[O-])c1	-0.5	2	0	-9	-2.0	-2	i	0.4	0.61	4.9
O=C(Nc1ccc2c(c1)OCCO2)C1CC(c2ccc(F)cc2)=NO1 (centres undefined)	1.4	2	6	4	1.2	1	i	4.9	0.68	-1.8
CNC(=O)COc1coc(CN2CCN(Cc3ccccc3)CC2)cc1=O	0.4	1	3	22	-2.0	·	i	2.7	0.69	3.4
COCCN(C(=O)c1ccccc1)c1nnc(-c2cccnc2)s1	-0.2	-6	·	·	·	-5	·	-1.1	0.73	·
CS(=O)(=O)N(CC(=O)N1CCCCC1)c1sc2c(c1C#N)CCCC2	-0.3	-5	·	·	·	-11	·	0.5	0.68	·
COCCCNc1nc(N)c([N+](=O)[O-])c(N2CCCCCC2)n1	-0.7	4	-6	-16	0.1	-3	i	9.3	0.66	3.8
Cc1cc(C)c2sc(NC(=O)C3=COCCO3)nc2c1	-8.8	8	-1	6	-0.5	0	i	3.0	0.66	1.3
CC(=O)Nc1ccc(S(=O)(=O)N2CCN=C2SCc2ccccc2C)cc1	-0.6	-2	-27	-36	-6.0	4	i	1.2	0.71	-1.3
CC(C)C[C@H](NC(=O)OC(C)(C)C)C(=O)N[C@@H](CO)[C@H](O)[C@@H]1C[C@@H]1C(=O)N(C)C	0.2	6	·	·	·	-5	·	2.9	0.75	·
COc1cc(/C=N/NC(=O)Cn2cnc3ccccc3c2=O)ccc1O	0.2	-2	11	5	13	-4	i	·	·	0.4
CCOc1nc(NCCO)nc(Nc2ccccc2F)n1	0.3	-2	1	12	0.2	1	i	·	·	-2.8
Cc1ccc(N/C=C/c2onc(C)c2[N+](=O)[O-])cc1	-6.0	3	3	6	8.5	7	i	5.8	0.66	·
O=C(CCCCCNC(=O)N1CCn2c1nc1ccccc12)NCc1ccccc1	-0.3	4	-5	-11	-3.1	-1	i	4.5	0.65	0.1
COc1cccc(/C(C#N)=C/c2c(-c3ccc(Cl)cc3)nc3c(C)cccn23)c1	0.6	14	·	·	·	6	·	6.7	0.78	·
CC(=O)Oc1ccc(C(=O)[C@H]2[C@H]3C(=O)N(c4ccc(C)cc4C)C(=O)[C@H]3[C@@H]3C=CC=NN32)cc1	-0.4	-12	14	7	5.7	-5	i	3.7	0.68	0.5
CCCN1CCN(C(=O)CS(=O)(=O)Cc2nc(-c3cccc(OC)c3)oc2C)CC1	0.6	5	12	12	0.6	-1	i	-0.6	0.66	0.5
Cc1csc(Cn2c(CN(C)C)nc3ccccc3c2=O)n1	-0.5	-2	·	·	·	-6	·	2.8	0.73	·
CC(=O)Nc1ccc(C2CC(c3ccc(Cl)cc3)=NN2c2ccccc2)cc1 (centres undefined)	2.2	39	-5	-3	-2.7	5	i	i	0.7	-33
Oc1cc(NCc2cccnc2)ccc1-c1nc2ccccc2o1	-3.9	45	·	·	·	29	·	-91	0.66	·
COc1ccc(C(=O)NCCNc2nc3ccc(C)cc3cc2C#N)cc1	-0.1	6	-9	-9	2.3	-3	i	-43	0.7	-0.3
COc1ccccc1COC(=O)N/C=C/c1ccco1	1.1	0	22	16	-1.9	·	·	2.3	0.69	-3.1
CCCn1c(=O)[nH]c(=O)c2c1nc(-c1ccccc1OC(F)F)n2CCOC	-1.7	-1	·	·	·	5	·	-0.8	0.65	·
O=C(O)CC1SC(=Nc2cccc(O)c2)NC1=O (centres undefined)	0.5	0	·	·	·	5	·	1.3	0.67	·
O=C1c2ccccc2-c2nc3ncnn3c(-c3ccccc3Cl)c21	0.2	-3	0	-9	1.2	6	i	2.7	0.73	-2.5

5 entries from above, comma-delimited.
compound,A1 inh,T cruzi repl,rRNA inh HTS,rRNA inh HTS OD600,rRNA inh HTS RFP,Beta apoptosis,FGF22 binding,UCH37 inh,E coli growth,MLL AF4-AF9 inh
O=C1c2ccccc2-c2nc3ncnn3c(-c3ccccc3Cl)c21,0.2,-3,0,-9,1.2,6,i,2.7,0.73,-2.5
COCCN(C(=O)c1ccccc1)c1nnc(-c2cccnc2)s1,-0.2,-6,·,·,·,-5,·,-1.1,0.73,·
O=C(CCCCCNC(=O)N1CCn2c1nc1ccccc12)NCc1ccccc1,-0.3,4,-5,-11,-3.1,-1,i,4.5,0.65,0.1
COc1ccccc1COC(=O)N/C=C/c1ccco1,1.1,0,22,16,-1.9,·,·,2.3,0.69,-3.1
CC(C)C[C@H](NC(=O)OC(C)(C)C)C(=O)N[C@@H](CO)[C@H](O)[C@@H]1C[C@@H]1C(=O)N(C)C,0.2,6,·,·,·,-5,·,2.9,0.75,·

Further results follow:
SMILES	A1 inh	T cruzi repl	rRNA inh HTS	rRNA inh HTS OD600	rRNA inh HTS RFP	Beta apoptosis	FGF22 binding	UCH37 inh	E coli growth	MLL AF4-AF9 inh
CC(C)N(Cc1cc2ccccc2[nH]c1=O)C(=O)C1CCCCC1	-0.7	4	·	·	·	0	·	4.2	0.73	·
CCOc1ccc2c(C)c(C)c(=O)oc2c1OCC	1.4	0	·	·	·	0	·	-34	0.66	·
O=C1C=CC(O)(c2cc(=O)c3c(O)cc(O)cc3o2)C=C1	0.6	-39	-5	3	3.2	111*	i	·	·	-40
CCOC(=O)C1=C(CC)Nc2ccccc2N=C1NC(=O)c1cc(S(=O)(=O)N2CCOCC2)ccc1C	-0.1	·	-4	1	-0.5	-10	i	2.2	0.72	-3.5
C[C@H](CO)N1C[C@H](C)[C@@H](CN(C)S(=O)(=O)c2cn(C)cn2)Oc2ccc(NC(=O)C3CCCCC3)cc2C1=O	·	·	-3&5	17&4	0.7&5.1	·	i	0.1	0.7	0.2&-1.2
Cc1onc(-c2ccccc2)c1C(=O)OCC(=O)Nc1ccc(OC(F)(F)F)cc1	1.1	·	·	·	·	4	i	1.0	0.64	-4.6
O=C(Cn1cc2c(n1)CCCCC2)NCCN1CCOCC1	1.1	-6	6	8	-1.5	0	·	4.7	0.72	-0.9
CN(C)S(=O)(=O)c1ccc(Cl)c(NC(=O)CSc2nc3c(cc2C#N)C(=O)CCC3)c1	1.1	-13	1	-2	0.8	-7	i	8.9	0.72	6.4
CCOc1ccc(N(Cc2cc3ccc(C)cc3[nH]c2=O)S(=O)(=O)c2ccccc2)cc1	-1.6	8	4	4	-0.8	5	i	-0.4	0.69	2.3
Cc1ccc(C)c(N(CC(=O)NCc2ccco2)C(=O)CCC(=O)Nc2nccs2)c1	-0.4	-16	-2	0	1.7	2	i	-0.7	0.7	0.0
CCOC(=O)COc1cc2c(C(=O)OCC)c(C)oc2cc1Br	0.4	4	·	·	·	-1	·	2.9	0.74	·
COc1ccc(-c2cc(C(=O)OCC(=O)N(C)C)c3ccccc3n2)cc1	1.3	-3	·	·	·	1	·	-27	0.69	·
N#Cc1nc(-c2ccc(OCc3ccccc3)cc2)oc1N1CCOCC1	-0.8	29	·	·	·	-7	·	-8.9	0.72	·
Cc1nn(C)c(Cl)c1/C=N/OC(=O)c1ccc(F)cc1	0.3	-2	2	-8	1.1	-4	i	·	·	-1.8
CCCc1cnc(N2CCN(C(=O)c3ccc(OC)cc3)CC2)nc1	-0.7	15	·	·	·	-7	·	-3.5	0.69	·
